VACV Venus inh: inhibitors of vaccinia virus (Venus reporter); Vaccinia virus Venus reporter expression, fluorescence; Potency, µM (highest dose often 36.5 µM), for the others: at the highest dose activity change, negative = inhibition, actives largely listed as inhibitors; hit rate 0.46% among 330,000; AID 720580; active means well fitted inhibition curve with a large enough effect; inconclusive means small, poorly fitted or top-dose-only effect; inactive means no such curve, though single readings can be large or run the other way; tested in A549 cells; also: nearly all actives have a fitted effect of over 30% in size; inactives centre near -10
VACV mCherry inh: inhibitors of vaccinia virus infection (mCherry reporter signal) | Vaccinia virus mCherry reporter infection, fluorescence; about a quarter of the inactives have no number | Potency, µM (titrated, usually from 36.5 µM), for the others: top-dose activity change, negative = inhibition, actives largely listed as inhibitors | hit rate 0.63% among 310,000; active = well fitted inhibition curve with a large enough effect; inconclusive = small, poorly fitted or top-dose-only effect; inactive = no such curve, though single readings can be large or run the other way; tested in A549 cells; also: nearly all actives have a fitted effect of over 35% in size; inactives centre near -10
Starred values were filed as active, the others as inactive; i = inactive; ? = inconclusive; · = not tested or not shown; [ ] = another dose, or the depositor's remark. % is scaled to controls: 0 for no effect and ±100 for the full control effect; potency is read from the fitted curve at half-maximal effect. Compounds as they come; about 0.82% have a hit in one of these screens.

The opening 7 entries, ahead of the listing:
Values in the order – VACV Venus inh, VACV mCherry inh
#1 O=C(CNc1ccc(C(F)(F)F)cc1)Nc1cccc(S(=O)(=O)N2CCCCC2)c1
  ?, ?
#2 CC(C)C(OC(=O)c1ccco1)C(=O)NCc1ccc2c(c1)OCO2 (stereo not drawn)
  -7%, -18%
#3 Cc1nc(CC(=O)N2CCC(n3c(C4CCC4)nc4cccnc43)CC2)cs1
  -9%, 0%
#4 Cc1ccc([C@H]2C[C@@H](O)[C@H](n3cc(-c4ccc(F)cc4)nn3)CN2Cc2cccs2)cc1
  -16%, -11%
#5 O=C(NCC(c1ccco1)N1CCc2ccccc21)c1ccc([N+](=O)[O-])cc1 (stereo not drawn)
  -13%, 0%
#6 CCOC(=O)N1CCN(C(=O)CN(c2cc(Cl)ccc2OC)S(=O)(=O)c2ccccc2)CC1
  -9%, -7%
#7 COc1ccccc1C1c2c(-c3ccc(Cl)cc3)n[nH]c2C(=O)N1c1ccc(C)cc1 (stereo not drawn)
  -5%, -12%

Results, from the first entry:
Values in the order – VACV Venus inh, VACV mCherry inh
#1 O=C(CNc1ccc(C(F)(F)F)cc1)Nc1cccc(S(=O)(=O)N2CCCCC2)c1
  ?, ?
#2 CC(C)C(OC(=O)c1ccco1)C(=O)NCc1ccc2c(c1)OCO2 (stereo not drawn)
  -7%, -18%
#3 Cc1nc(CC(=O)N2CCC(n3c(C4CCC4)nc4cccnc43)CC2)cs1
  -9%, 0%
#4 Cc1ccc([C@H]2C[C@@H](O)[C@H](n3cc(-c4ccc(F)cc4)nn3)CN2Cc2cccs2)cc1
  -16%, -11%
#5 O=C(NCC(c1ccco1)N1CCc2ccccc21)c1ccc([N+](=O)[O-])cc1 (stereo not drawn)
  -13%, 0%
#6 CCOC(=O)N1CCN(C(=O)CN(c2cc(Cl)ccc2OC)S(=O)(=O)c2ccccc2)CC1
  -9%, -7%
#7 COc1ccccc1C1c2c(-c3ccc(Cl)cc3)n[nH]c2C(=O)N1c1ccc(C)cc1 (stereo not drawn)
  -5%, -12%
#8 COc1ccc(CN2CCN(C(=O)c3cccc(OC)c3OC)CC2)cc1OC
  0%, -4%
#9 Cc1ccc(SCC(=O)Nc2cccc(-c3nnc(-c4ccco4)o3)c2)cc1
  ?, ·
#10 CN(C)c1ccc(C=O)c(F)c1
  5%, -9%
#11 O=C(Cn1ncc2c1-c1ccccc1OC2)Nc1ccc(Cl)cn1
  -20%, i
#12 CC(C)NC(=O)Cn1cc(C(=O)COc2ccccc2)c2ccccc21
  -1%, -7%
#13 Cc1cccc(Nc2c([N+](=O)[O-])c(=O)oc3ccccc23)c1
  -8%, i
#14 CCOc1cccc(C2c3[nH]c4ccccc4c3CCN2C(=O)Cc2cccc(OCC)c2OCC)c1 (stereo not drawn)
  -2%, -11%
#15 CCC(=O)N1CCc2cc(S(=O)(=O)CCC(=O)N3CCN(c4ccccc4)CC3)ccc21
  -14%, 0%
#16 CCCCOc1ccc(C(=O)N/C(=C\c2ccc(Br)cc2)C(=O)NC2CCCCC2)cc1
  -12%, -23%
#17 COc1ccccc1NS(=O)(=O)c1ccc(C(=O)OCC(=O)NCc2ccco2)cc1
  -14%, -16%
#18 Cc1ccc2nc3c(cc(C#N)c(=O)n3-c3nnc(SCc4ccc(F)cc4)s3)c(=O)n2c1
  -13%, -12%
#19 Cc1sc(NC(=O)CCCC(=O)O)c(C(N)=O)c1-c1ccccc1
  -10%, -22%
#20 O=C(CNS(=O)(=O)c1cccc2nsnc12)NCc1ccc(Cl)cc1
  -9%, i
#21 NC(=O)c1c(Nc2nc3c(F)cccc3s2)sc2c1CCCC2
  75%[activator], 31%[activator]
#22 O=S(=O)(NC1CCCC1)c1ccc(S(=O)(=O)N(Cc2cccs2)CC2CCCO2)cc1 (stereo not drawn)
  -10%, -20%
#23 COc1ccc(-c2nc3ccc(NS(=O)(=O)c4ccccc4)cc3o2)cc1
  -13%, -16%
#24 Clc1ccc2nc(COc3ccccc3)[nH]c2c1
  -11%, -1%
#25 COc1cccc(-c2sc3ccc(OC)cc3c2-c2cc(F)cc(OC)c2)c1
  2%, -38%
#26 O=C(COC(=O)c1cc(F)c(F)cc1Cl)NC1CCCCCC1
  -3%, i
#27 CC1CC(C)CN(C(=O)c2cccc(S(=O)(=O)Nc3cc(C(F)(F)F)ccc3Cl)c2)C1 (stereo not drawn)
  -11%, i
#28 COc1ccc(CNC(=O)CSCc2nc(-c3ccccc3F)oc2C)cc1
  -9%, -15%
#29 Cc1cc2ccccc2c(=O)n1CC(=O)N1CCN(c2cccc(Cl)c2)CC1
  -8%, -15%
#30 O=C(NC(=S)NCC1CCCO1)c1ccccc1 (stereo not drawn)
  -9%, 0%
#31 Cc1ccc([C@@H]2CC=C(C(=O)O)[C@H](c3ccc(Cl)cc3)N2S(=O)(=O)c2ccccc2C)cc1
  -16%, -13%
#32 COC(=O)c1ccccc1NC(=O)Nc1cccc(OCc2cc(=O)n3cccc(C)c3n2)c1
  -9%, -21%
#33 C=CCn1c(NC(C)c2cc(Cl)ccc2O)nc2ccccc21 (stereo not drawn)
  -28%, ?
#34 Cc1nnc(SCC(=O)NNC(=O)c2ccco2)s1
  -11%, -11%
#35 O=C(CC[C@H]1O[C@@H](n2ccc(=O)[nH]c2=O)[C@H](O)[C@@H]1O)N1CCN(c2ccccn2)CC1
  -2%, 8%
#36 O=C(Nc1ccccc1N1CCOCC1)[C@@H]1O[C@H](CO)[C@H](O)[C@H](O)[C@H]1O
  12%, 9%
#37 NC(=O)CSc1ncc2c(n1)-c1ccccc1N(Cc1cccc(F)c1)S2(=O)=O
  19%, 7%
#38 CC(C)(C)NC(=O)C(C1CC1)n1c(=O)c(-c2ccco2)nc2ccccc21 (stereo not drawn)
  -4%, -18%
#39 CCOC(=O)c1c(C)c(C(=O)NCc2ccc(OC)cc2)c(C)n1CC
  4%, -2%
#40 CC(C)(Oc1ccc(Cl)cc1)C(=O)NCCN1C(=O)S/C(=C/c2cccnc2)C1=O
  -12%, -14%
#41 CCCCN1CC(=O)N2[C@H]3c4cc(OC)ccc4OC[C@@H]3[C@H](C(=O)OCC)[C@]2(C)C1=O
  -7%, i
#42 O=C(CC1C(=O)NCCN1Cc1ccc(-c2ccccc2)cc1)NCC1CC1 (stereo not drawn)
  -20%, i
#43 CCc1cccc(OCCN2CCCC2)c1
  4%, -1%
#44 CC(C)Cn1c(=O)c2sccc2n2c(CCCC(=O)NCc3ccccc3Cl)nnc12
  0%, -9%
#45 Cc1ccc(C2(C)NC(=O)N(CC(=O)N(C)CC(=O)Nc3cccc4ccccc34)C2=O)cc1 (stereo not drawn)
  -4%, -30%
#46 COC(=O)C[C@@H]1CC[C@@H](NC(=O)c2ccccc2F)[C@@H](CO)O1
  0%, 4%
#47 CCN(CC)CCn1c2c(c(SCC(=O)Nc3cccc(C(C)=O)c3)nc1=O)CCCC2
  -22%, -3%
#48 Cc1ccc(C(C[N+](=O)[O-])c2c(-c3ccccc3O)[nH][nH]c2=O)cc1 (stereo not drawn)
  -8%, -17%
#49 COc1ccc(-n2c(C)cc(C(=O)CN3C(=O)NC4(CCCc5sccc54)C3=O)c2C)cc1 (stereo not drawn)
  -21%, i
#50 COc1ccccc1N(CC(O)COc1ccccc1C)S(=O)(=O)c1ccccc1 (stereo not drawn)
  -8%, -3%

Additional results
Values in the order – VACV Venus inh, VACV mCherry inh
#51 NC(=O)c1ncc(C(F)(F)F)cc1Cl
  -12%, 0%
#52 CCN1C(=O)C(CC(=O)Nc2ccc(OC)cc2)N(CCc2ccccc2)C1=S (stereo not drawn)
  -13%, -8%
#53 O=C(NC(Cc1c[nH]c2ccccc12)C(=O)NCCCN1CCOCC1)c1cccs1 (stereo not drawn)
  2%, -11%
#54 COCCCNC(=O)/C(C#N)=C/c1c(N2CCN(c3cccc(Cl)c3)CC2)nc2c(C)cccn2c1=O
  -10%, -8%
#55 CC1(C)CC(=O)C(C(C#Cc2ccccc2)C2=C(O)CC(C)(C)CC2=O)=C(O)C1
  -2%, -13%
#56 Cn1cc(C(=O)c2ccc(Cl)cc2Cl)cc1C=O
  -11%, -4%
#57 COc1cc(NS(=O)(=O)c2c(C(=O)N3CCCCC3)c(C)n(C)c2C)cc(OC)c1OC
  -9%, -8%
#58 CCN1CCN(Cc2ccc(NC(=O)c3ccc(C)c(NC(=O)c4csc(-c5ccncc5)n4)c3)cc2C(F)(F)F)CC1
  ?, -8%
#59 Cc1ccc(CNC(=O)CCCN2C(=O)c3cccnc3Oc3ccc(Cl)cc32)cc1
  -6%, -9%
#60 COc1cccc(COC(=O)c2c(C)nn(-c3ccccc3)c2Cl)c1OC
  -13%, -21%

Whole records, quoted from the list. Screens in order: VACV Venus inh	VACV mCherry inh
`COc1cccc(COC(=O)c2c(C)nn(-c3ccccc3)c2Cl)c1OC` in the list: -13%	-21%
`CCN1CCN(Cc2ccc(NC(=O)c3ccc(C)c(NC(=O)c4csc(-c5ccncc5)n4)c3)cc2C(F)(F)F)CC1` in the list: ?	-8%
`O=C(NC(Cc1c[nH]c2ccccc12)C(=O)NCCCN1CCOCC1)c1cccs1` (stereo not drawn) in the list: 2%	-11%

The list continues.
Values in the order – VACV Venus inh, VACV mCherry inh
#61 O=C(CN(C(=O)c1csnn1)c1ccc(F)cc1)NCc1ccc(F)cc1
  -8%, i
#62 Cc1cc(C)nc(SCc2ccc(F)cc2)n1
  -11%, -10%
#63 COC(=O)c1cc2sc(C)cc2n1Cc1ccccc1
  2%[7.34 µM], -4%[7.34 µM]
#64 Cc1ccc(C)c(Cn2nnc3c(=O)[nH]c(C4CCN(C(=O)c5cccs5)CC4)nc32)c1
  -21%, i
#65 CCSc1nsc(NC(=O)Nc2ccccc2Cl)n1
  -20%, ?
#66 CC(C)OCCCNC(=S)Nc1ccc(S(N)(=O)=O)cc1
  1%, -13%
#67 CN1C(=O)N(C)C(=O)C2(Cc3cc(NC(=O)c4ccc(F)cc4)ccc3N3CCCC32)C1=O (stereo not drawn)
  10%, -16%
#68 Cc1ccc(-n2c(=O)c3oc4ccccc4c3n(CC(=O)Nc3ccc(F)c(Cl)c3)c2=O)cc1C
  -9%, -11%
#69 COc1ccc(C2C(C(C)=O)=C(C)Nc3ncnn32)c(OC)c1OC (stereo not drawn)
  -13%, -18%
#70 CC1=NN(C(=O)CCCc2ccccc2)C(O)(C(F)(F)F)C1 (stereo not drawn)
  -10%, -3%
#71 CCOc1ccccc1C(=O)n1nc(C)cc1C
  -12%, -17%
#72 COCCNc1ncnc2c1ncn2[C@H]1CN(Cc2ccncc2)C[C@@H](CO)O1
  -12%, -7%
#73 O=C(CN1CCC(c2nc3ccccc3s2)CC1)NCc1cccs1
  ?, -29%
#74 O=C(Nc1c(C(=O)N2CCOCC2)oc2ccccc12)c1cccc([N+](=O)[O-])c1
  -15%, ?
#75 COc1cc(NS(C)(=O)=O)ccc1Nc1c2ccccc2nc2ccccc12
  ?, 0.5µM*
#76 Cc1[nH]c2ccccc2c1C(=O)CSc1ccccc1
  -15%, -4%
#77 COc1ccc(C(N)c2csc(Nc3ccc(C(=O)NCCCO)cn3)n2)cc1 (stereo not drawn)
  -12%, ?
#78 CC(C)C(=O)Nc1ccc2nc(SCCOc3ccccc3)sc2c1
  3%, -11%
#79 CCc1ccccc1NC(=O)N1CCCc2ccccc21
  6%, -1%
#80 CCN(CC)S(=O)(=O)c1cccc(NC(=O)CCNC(=O)c2ccccc2Cl)c1
  -5%, -5%
#81 O=C(Cn1ncc2c3ccccc3n(Cc3ccccc3F)c2c1=O)NCCCN1CCCC1=O
  0%[7.34 µM], i[7.34 µM]
#82 CCC(C)NC(=O)NC1C(NC(=O)NC(C)CC)N(C)C(=O)N1C (stereo not drawn)
  -7%, -18%
#83 COc1cc(C2C(C#N)=C(N)OC3=C2C(=O)CCC3)ccc1OC(=O)N1CCOCC1 (stereo not drawn)
  -7%, -10%
#84 Cc1ccc(S(=O)(=O)NCc2cccnc2)cc1C(=O)NC1CCCCC1
  -8%, i
#85 O=C(N/N=C/C(Br)=C\c1ccccc1)c1ccco1
  -11%, -12%
#86 CCc1ccc(-c2c(C)sc(NC(=O)C3CCC3)c2C#N)cc1
  1%, -9%
#87 O=C(Cn1c(=O)c(CNc2ccccc2)cc2cc3c(cc21)OCCO3)Nc1ccccc1Cl
  -2%, 3%
#88 COc1cccc2c(O)cc(=O)n(C)c12
  -3%, -13%
#89 O=C(Cc1ccccc1)NC1CCS(=O)(=O)C1 (stereo not drawn)
  -10%, i
#90 CC(=O)Oc1ccc(Cn2c(C)c(C(=O)NCc3ccc4c(c3)OCCO4)sc2=O)cc1
  12%, 27%
#91 CCOC(=O)N1CCC(NC(=O)c2ccc3c(c2)N(Cc2ccccc2)C(=O)c2ccccc2S3=O)CC1 (stereo not drawn)
  2%, 12%
#92 Cc1cc(C)cc(NC(=O)Cn2cc(C(=O)C3CCCCC3)c3ccccc32)c1
  ?, ?
#93 COc1ncccc1C(=O)N1CCC(n2nccc2NC(=O)CC(C)C)CC1
  -4%, i
#94 COc1ccc(C)cc1NC1=NCCCS1
  -12%, i
#95 Cc1ccc(NC(=O)Cc2nnc(N)s2)cc1
  33%[activator], 5%
#96 COc1ccc(NC(=O)CCN2C(=O)C3C4C=CC(C4)C3C2=O)cc1 (stereo not drawn)
  -3%, 9%
#97 Cc1cccc(NC(=O)CCCN2C(=O)c3ccccc3C2=O)n1
  ?, -10%
#98 Cc1ccc(-n2c(SCC(=O)N(C)C3CCS(=O)(=O)C3)nc3ccccc3c2=O)c(C)c1 (stereo not drawn)
  -4%, -4%
#99 CCOC(=O)c1ccc(CN(Cc2ccc(C)cc2)S(=O)(=O)c2ccc(F)c(C(=O)Nc3ccc(C)c(F)c3)c2)cc1
  -10%, -8%

Compound activity: PubChem, National Center for Advancing Translational Sciences (NCATS)
